Screening results from PubChem.
Lassa entry inh: inhibitors of Lassa virus binding or cell entry. Lassa virus pseudotype entry inhibition, cell reporter; control for the full effect not named in the record. Potency, µM (doses to about 37.9 µM), for the others: top-dose activity change, negative = inhibition, usual class: inhibitors. 1.2% of 300,000 active. AID 540256; active means well fitted inhibition curve with a large enough effect; inconclusive means small, poorly fitted or top-dose-only effect, or effect the other way; inactive means flat fitted curve, though single readings scatter; tested in HEK293 cells; further: on the % scale 0 is the no-effect control and ±100 the full control effect; nearly all actives have a fitted effect of over 50% in size; luciferase read-out
SARS PLpro yeast: SARS-CoV PLP inhibition in yeast; Potency, µM (top dose mostly 32.9 µM), for the others: at the highest dose activity, positive = growth rescue; AID 485353; S. cerevisiae expressing SARS-CoV PLpro, growth rescue; control for the full effect not named in the record; 0.19% of 330,000 active; further: 0% is about no effect; nearly all actives have a fitted effect of over 55% in size; growth read by luminescence after 48 h
2A StopGo: FMDV 2A StopGo reporter, luciferase signal. Potency, µM (top dose mostly 57.9 µM), without a hit: at the top dose signal change, negative = less light. human cells with a luciferase reporter of 2A StopGo recoding; control for the full effect not named in the record. 1.2% of 410,000 active. AID 1159524; active = well fitted falling curve with a large enough effect; inconclusive = small, poorly fitted or top-dose-only effect; inactive = no such curve, though single readings can be large or run the other way; tested in HEK293T cells; further: on the % scale 0 is the no-effect control and ±100 the full control effect; nearly all actives have a fitted effect of over 45% in size; luciferase light after 4 h
Cruzain inh noDet: blocks cruzain activity in detergent-free assay | P25779 | 2.3% of 200,000 active | Potency, µM, inactives show max response, negative = inhibition, usual class: inhibitors | purified cruzain, Z-FR-AMC fluorescence, no detergent; active means well fitted curve in the direction sought with a large enough effect; inconclusive means small, poorly fitted or top-dose-only effect, or another doubt; inactive means no such curve, though single readings can be large; an effect the other way counts as inactive or inconclusive;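 further: plate controls were enzyme without inhibitor for no effect and buffer without enzyme for full effect; nearly all actives have a fitted effect of over 40% in size; top concentration of the series not given in the record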
Target sequence (P25779 123-467 limits assumed): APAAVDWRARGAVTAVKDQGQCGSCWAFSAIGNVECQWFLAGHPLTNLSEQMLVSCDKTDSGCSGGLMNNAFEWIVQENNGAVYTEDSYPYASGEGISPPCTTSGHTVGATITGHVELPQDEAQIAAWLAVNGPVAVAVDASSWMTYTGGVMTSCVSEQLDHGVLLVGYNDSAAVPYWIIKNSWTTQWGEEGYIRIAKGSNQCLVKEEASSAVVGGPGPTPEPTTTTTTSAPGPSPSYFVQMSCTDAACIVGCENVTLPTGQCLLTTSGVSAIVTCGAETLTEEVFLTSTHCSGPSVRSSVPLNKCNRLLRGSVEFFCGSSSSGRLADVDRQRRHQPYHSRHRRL
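Purified cruzain at 1.5 nM, pre-incubated 15 min with compound at room temperature in 100 mM sodium acetate pH 5.5, 5 mM DTT, 0.00005% Triton X-100. Reaction started with 2 uM Z-FR-AMC; AMC fluorescence increase over 60 s gives rate.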
Marburg entry inh: Marburg virus entry inhibition | Marburg virus pseudotyped entry inhibition, cell reporter; control for the full effect not named in the record; about a third of the inactives were read at about 46 µM | Potency, µM (doses to about 37.8 µM), inactives show at the highest dose activity change, negative = inhibition, hits mostly inhibitors | 1.8% of 300,000 active; active = well fitted inhibition curve with a large enough effect; inconclusive = small, poorly fitted or top-dose-only effect, or effect the other way; inactive = flat fitted curve, though single readings scatter; tested in HEK293 cells; about a fifth of its hits are not listed in these tables; further: on the % scale 0 is the no-effect control and ±100 the full control effect; luciferase read-out
NS1 function inh: influenza NS1 inhibition; S. cerevisiae slowed by influenza A NS1, growth recovery by OD600; 0.4% of 270,000 active; AID 2326; Potency, µM (titrated, usually from 46.1 µM), without a hit: at the highest dose activity, positive = more growth; further: actives are rising curves; nearly all actives have a fitted effect of over 50% in size
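Recovery from NS1-induced slow growth read by OD600 in budding yeast switched to galactose assay medium (pH 6.0, -URA) at 1:100 dilution. Compound 23 nl per well; the matching strain lacking NS1 serves as control.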
RE007 growth inh: less growth of the S. pombe RE007 Vpr strain; Potency, µM (doses to about 92.2 µM), for the others: at the top dose activity change, negative = less growth; S. pombe RE007 Vpr strain, BacTiter-Glo ATP luminescence, 24 h; control for the full effect not named in the record; 0.21% of 360,000 active; active = well fitted falling curve with a large enough effect; inconclusive = small, poorly fitted or top-dose-only effect; inactive = no such curve, though single readings can be large or run the other way;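 further: on the % scale 0 is the no-effect control and ±100 the full control effect; nearly all actives have a fitted effect of over 50% in size; the assay follows cell death caused by Vpr and the record does not say whether a fall means rescue or toxicity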
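Fission yeast strain RE007, carrying one chromosomally integrated HIV-1 vpr copy, was seeded at OD 0.01 in PMG+AL medium with 23 nL pinned compound. After 24 h at 30 °C and 99% humidity, viability was read by BacTiter-Glo luminescence.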
Cruzain inh Det: cruzain (T. cruzi) inhibition with detergent | 0.43% of 200,000 active | AID 1478 | Potency, µM, inactives show max response, negative = inhibition, usual class: inhibitors | purified cruzain, Z-FR-AMC fluorescence, 0.01% Triton; active means well fitted curve in the direction sought with a large enough effect; inconclusive means small, poorly fitted or top-dose-only effect, or another doubt; inactive means no such curve, though single readings can be large; an effect the other way counts as inactive or inconclusive;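 further: plate controls were neutral wells for no effect and buffer without enzyme for full effect; nearly all actives have a fitted effect of over 40% in size; top concentration of the series not given in the record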
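Sodium acetate buffer (100 mM, pH 5.5) containing 5 mM DTT and 0.01% Triton X-100 hosted 1.5 nM cruzain and test compound for 15 min at room temperature. Cleavage of 2 uM Z-FR-AMC was then tracked by fluorescence.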
* hit, by the source's call; ? = inconclusive; / = not tested or not shown; & = joins results of further samples; [ ] = dose if it differs, or a comment. Unless noted, the call rests on the fitted dose curve; in most records, active means well fitted rising curve with a large enough effect; inconclusive means small, poorly fitted or top-dose-only effect; inactive means no such curve, though single readings can be large or run the other way. Potency means the concentration at half of the fitted maximal effect.

SMILES,Lassa entry inh,SARS PLpro yeast,2A StopGo,Cruzain inh noDet,Marburg entry inh,NS1 function inh,RE007 growth inh,Cruzain inh Det
CCCCOP(=O)(OCCCC)C(O)c1ccc(N(C)C)cc1 (stereo not drawn),-11%[46.1 µM],1%,-15%,/,-3%[46.1 µM],9%,-16%,/
COc1ccc(-c2c(NC(C)=O)n(C)c3ccccc3c2=O)cc1,-5%,-3%,5%,-6%,9%,-6%,8%,-1.8%
COc1ccc(C2/C=C\CN(C(=O)OCc3ccccc3)CC(=O)N2Cc2ccc(F)cc2)cc1 (stereo not drawn),/,-10%,-18%,/,/,-3%,9%,/
Cc1[nH]c2ccc(C(=O)N3CCN(Cc4ccccc4)CC3)cc2c1C,?,1%,1%,/,2%[46.1 µM],0%,-6%,/
CCCCCn1c(=O)[nH]c2cc(C(=O)NCCCN(CC)CC)ccc2c1=O,-4%,1%,-8%,4%,-27%,-6%,-8%,-3.1%
Cc1cc(NC(=O)CCC(=O)N(Cc2ccco2)C2(C(=O)NC3CCCCC3)CCCC(C)C2)no1 (stereo not drawn),/,0%,-23%,/,-33%[46.1 µM],8%,-9%,/
COc1ccc(-c2cc(C(=O)Nc3c(C(=O)c4ccc(C)c(F)c4)oc4ccccc34)no2)cc1,2%[46.1 µM],/,-2%,-12%,?,/,/,-1.1%
O=C1NCC(O)=C1C=NCCCO,11%,2%,/,-11%,10%,-10%,-12%,-7.2%
CCOC(=O)CSc1nc2ccsc2c(=O)[nH]1,-10%[46.1 µM],0%,0%,/,?,2%,9%,/
Cc1ccc(N(C)C(=O)CCNC(=O)Cn2cnc3ccccc3c2=O)cc1C,/,0%,7%,/,?,2%,-19%,/
COc1cc2c(c(OC)c1OC)-c1c(cc(OC)c(OC)c1OC)C[C@](C)(O)[C@@H](C)C2,/,-4%,-11%,/,/,8%,16%,/
O=C(CSc1nnc2ccccn12)Nc1cccc(S(=O)(=O)N2CCOCC2)c1,-14%,-14%,17%,-1%,18%,7%,2%,2.2%
COc1ccc(/C=N/NC(=O)c2ccn[nH]2)cc1CSc1ccccn1,/,-3%,0%,/,/,8%,4%,/
O=C(Nc1ccc(F)cc1)c1ccccc1S(=O)(=O)c1ccccc1[N+](=O)[O-],1%,5%,-11%,4%,-11%,9%,-19%,-0.4%
Nc1ccn(-c2ccc(Cl)cc2)c(=O)c1,-2%,5%,12%,-9%,-9%,-5%,20%,1.0%
O=C(COC(=O)CCN1C(=O)c2ccccc2C1=O)Nc1ccc(S(=O)(=O)N2CCCC2)cc1,4%,15%,9%,0%,-14%&-14%[46.1 µM],-49%,-7%,1.6%
COc1ccccc1C(=O)Nc1cccc(OCc2cc(=O)n3c(C)csc3n2)c1,?,/,-25%,?,?,/,/,-5.3%
NC(=O)NC(=O)CN1C(=O)NC(c2ccccc2)(c2ccccc2)C1=O,12%[46.1 µM],23%,6%,/,?,17%,-11%,/
O=C(CNC(=O)c1ccco1)NCC(=O)OCc1cccc(Cl)c1,14%,-2%,17%,-16%,-1%,4%,8%,-6.5%
COc1ccc(S(=O)(=O)NC(C)C(=O)NCc2ccncc2)cc1OC (stereo not drawn),-13%,1%,-2%,/,-4%[46.1 µM],4%,-17%,/
N[C@@H](CO)c1nnc([C@H](Cc2ccc(O)cc2)NC(=O)C2CCNCC2)o1,/,0%,-17%,/,/,5%,8%,/
COc1ccccc1NC(=O)CN1C(=O)COc2ccc(S(=O)(=O)N3CCOCC3)cc21,-11%[46.1 µM],0%,-12%,/,14%[46.1 µM],0%,-16%,/
COCCN(C(=O)CSc1nnc(-c2ccccc2F)o1)c1c(N)n(CC(C)C)c(=O)[nH]c1=O,-24%,2%,-1%,/,18%[46.1 µM],/,29%,/
O=C(NCc1cccc(Cl)c1)c1ccc(CS(=O)Cc2ccc(Cl)cc2)o1 (stereo not drawn),?,1%,-8%,/,?,-1%,-2%,/
CCOC(=O)N1CCN(C(=O)CSc2nnc(-c3ccc(C)c(C)c3)o2)CC1,/,2%,0%,16%,/,-8%,0%,3.3%
O=C(CCC(=O)OCc1cccc([N+](=O)[O-])c1)Nc1ccc(F)cc1,/,0%,5%,/,/,2%,13%,/
COc1c(C)cc(C(=O)C2CCCN(C(=O)CCc3scnc3C)C2)cc1C (stereo not drawn),/,-1%,-13%,/,/,-8%,6%,/
COc1ccccc1NC(=O)C1=C(C)Nc2nnnn2C1c1cc(Br)c(O)c(OC)c1 (stereo not drawn),-1%[46.1 µM],/,-11%,12%,-16%[46.1 µM],/,/,-3.3%
CCS(=O)(=O)c1c(Nc2ccc(F)c(Cl)c2)sc(C(=O)c2ccccc2)c1N,-15%[46.1 µM],/,-29%,-11%,-15%[46.1 µM],/,/,-13%
Cc1cc(C(=O)Nc2sc3c(c2C#N)CCC(C)C3)no1 (stereo not drawn),?,-1%,11%,-7%,?,-6%,7%,-1.7%
COc1ccc(CNS(=O)(=O)c2ccc(S(=O)(=O)NC3CC3)cc2)cc1,30%,1%,-16%,/,6%[46.1 µM],4%,-3%,/
COCCn1c(C)cc(C(=O)COc2cccnc2[N+](=O)[O-])c1C,7%[46.1 µM],3%,-12%,/,24%[46.1 µM],/,-6%,/
O=C(CSc1nc(-c2ccccc2)no1)N1CCN(c2ccccc2F)CC1,-1%[46.1 µM],/,-12%,-2%,/,/,/,-3.2%
COc1ccc(CNC(=O)Cn2nc(C)c3nn(-c4ccc(Cl)cc4)c(C)c3c2=O)cc1,15%[46.1 µM],/,-17%,-12%,/,/,/,3.4%
CCC(c1nnc(SCC(=O)Nc2ccc(N3CCOCC3)cc2)n1Cc1ccccc1)N(C)C (stereo not drawn),5%,-1%,-1%,/,28%,/,5%,/
Cc1snnc1C(=O)NC(=S)Nc1ccccc1,18%[46.1 µM],0%,-14%,/,0%[46.1 µM],-8%,-12%,/

Not a retest: an excerpt of the list.
SMILES,Lassa entry inh,SARS PLpro yeast,2A StopGo,Cruzain inh noDet,Marburg entry inh,NS1 function inh,RE007 growth inh,Cruzain inh Det
COc1ccc(CNS(=O)(=O)c2ccc(S(=O)(=O)NC3CC3)cc2)cc1,30%,1%,-16%,/,6%[46.1 µM],4%,-3%,/
COCCn1c(C)cc(C(=O)COc2cccnc2[N+](=O)[O-])c1C,7%[46.1 µM],3%,-12%,/,24%[46.1 µM],/,-6%,/
O=C(CSc1nc(-c2ccccc2)no1)N1CCN(c2ccccc2F)CC1,-1%[46.1 µM],/,-12%,-2%,/,/,/,-3.2%
COc1ccc(CNC(=O)Cn2nc(C)c3nn(-c4ccc(Cl)cc4)c(C)c3c2=O)cc1,15%[46.1 µM],/,-17%,-12%,/,/,/,3.4%

Further results follow.
SMILES,Lassa entry inh,SARS PLpro yeast,2A StopGo,Cruzain inh noDet,Marburg entry inh,NS1 function inh,RE007 growth inh,Cruzain inh Det
CC(=O)N1CCc2ccc(S(=O)(=O)N3CCc4ccccc43)cc21,/,-1%,-26%,/,/,0%,14%,/
Cc1cccc(NC(=O)COC(=O)c2ccc(S(=O)(=O)N3CCCCCC3)cc2)c1,-26%,-2%,-7%,/,2%,/,5%,/
CCOC(=O)c1ccc(N2C(=O)c3[nH]nc(-c4ccc(OCC)cc4)c3C2c2cccs2)cc1 (stereo not drawn),?,/,?,?,?,/,/,-1.7%
NP(=O)(Oc1ccccc1)Oc1ccccc1,19%[46.1 µM],/,6%,/,?,/,-7%,/
O=C(C1CCN(Cc2nc(Cc3cccc(F)c3)no2)CC1)N1CCOCC1,-12%,0%,9%,/,19%[46.1 µM],1%,-3%,/
O=C(Nc1ccc(Cl)cc1C(F)(F)F)c1cc(S(=O)(=O)NCc2ccccc2)ccc1F,-3%[46.1 µM],/,17%,-5%,/,/,/,1.2%
Cc1ccc(S(=O)(=O)N2CCCOC2CNC(=O)C(=O)NCc2ccco2)cc1 (stereo not drawn),13%,7%,-10%,-12%,7%,-7%,3%,-3.3%
COc1cccc(Sc2ccccc2/C=N/NC(N)=O)c1,?,0%,-4%,/,?,/,4%,/
CCc1cccc(CC)c1NC(=S)N1CCn2cccc2C1c1cccnc1 (stereo not drawn),2%,10%,-17%,-3%,17%,2%,-14%,-4.9%
CCCC(=O)Nc1c(-c2cccs2)c(=O)c2ccccc2n1C,5%,-4%,-20%,-5%,24%,-1%,1%,0.4%
Cc1c(Cc2ccccc2)c(=O)oc2cc(OCC(=O)N3CCC(C(N)=O)CC3)ccc12,/,-7%,-24%,/,/,4%,-13%,/
COc1cccc(N2CC(C(=O)Oc3ccc4ccccc4c3)CC2=O)c1 (stereo not drawn),2%,-10%,-15%,-3%,3%,-64%,4%,-6.4%
CC(=O)NC(CC(=O)NCC(c1ccco1)N(C)C)c1ccccc1 (stereo not drawn),-2%,2%,12%,-4%,-7%,12%,15%,2.0%
CCNC(=O)NC(=O)C(C)Sc1nc2cc(C(=O)OC)ccc2c(=O)n1-c1ccccc1 (stereo not drawn),3%,3%,0%,?,?,5%,5%,-7.5%
O=C(Nc1cccc(-c2nnco2)c1)c1cccs1,/,0%,6%,/,-3%,-9%,12%,/
CCOC(=O)C1(CCOc2ccccc2)CCN(Cc2cnc(C)[nH]2)CC1,/,0%,?,/,?,-3%,-16%,/
O=C(c1ccc2c(c1)OCO2)N(CC1CCCO1)C1(C(=O)NC2CCCC2)CCCCC1 (stereo not drawn),?,2%,-2%,-27%,-5%[46.1 µM],0%,2%,3.4%
COc1ccc(CNC(=O)c2cnc(N3CCCC3)nc2C)c(OC)c1,?,/,-1%,2%,/,/,/,-1.7%
Cc1cccc2cc(COC(=O)COc3ccccc3)c(=O)[nH]c12,3%,2%,-3%,-5%,7%,-15%,12%,3.6%
